rRNA inh HTS = reduced GFP signal of wild-type E. coli, primary screen, bacterial rRNA inhibitor project, GFP/RFP fluorescence, OD600, single point; E. coli WT GFP vs humanized-ribosome RFP mutants, 24 h; stronger effect = lower value; DMSO median 0, no signal -100; GFP signal change (wild-type ribosome), % (concentration not given with the values); actives 1.6% (n = 350,000); AID 720706, 2013;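 active = significant combined selectivity score with lowered wild-type GFP, culture density cut under 30%, mutant RFP and density less affected; inactive = any of these conditions unmet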; also: one replicate is shown; some compounds called inactive have numbers as strong as hits
MLL AF4-AF9 inh = inhibitors of AF4 peptide binding to AF9, primary screen, biochemical, AlphaScreen, biotin-AF4 peptide, FLAG-AF9, single point; inhibition, % at 10 µM; actives 0.47% (n = 350,000); Protein AF-9 (Homo sapiens), P42568;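 active = every replicate reaching a set inhibition limit, whatever the replicate mean, cut at about 25% in these data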;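 also: 0% = plate neutral control median and 100% = total signal loss; the record names both 10 and 1 µM as test concentration; the first replicate is given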
Target sequence (P42568 whole entry, looked up): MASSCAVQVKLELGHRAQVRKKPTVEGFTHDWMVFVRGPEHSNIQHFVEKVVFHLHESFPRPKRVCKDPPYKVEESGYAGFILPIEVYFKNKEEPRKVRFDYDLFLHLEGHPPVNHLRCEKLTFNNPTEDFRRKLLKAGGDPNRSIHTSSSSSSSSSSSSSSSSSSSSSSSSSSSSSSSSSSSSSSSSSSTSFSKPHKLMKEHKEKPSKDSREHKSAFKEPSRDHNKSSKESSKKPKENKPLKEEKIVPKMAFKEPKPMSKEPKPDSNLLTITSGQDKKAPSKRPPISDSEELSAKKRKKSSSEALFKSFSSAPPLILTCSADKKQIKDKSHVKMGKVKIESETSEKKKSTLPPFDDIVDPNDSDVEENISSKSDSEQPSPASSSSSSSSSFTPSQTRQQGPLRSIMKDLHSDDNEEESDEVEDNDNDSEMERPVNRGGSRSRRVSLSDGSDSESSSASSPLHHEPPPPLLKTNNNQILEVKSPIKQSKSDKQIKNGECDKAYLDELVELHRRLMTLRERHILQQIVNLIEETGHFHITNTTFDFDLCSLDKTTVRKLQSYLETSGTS
FGF22 binding = binders of human FGF22 protein, primary screen, FGF22 synaptogenesis inhibitor project, biophysical, thermal shift, single point | Fibroblast growth factor 22 (Homo sapiens), Q9HCT0 | recombinant FGF22 thermal shift, SYPRO orange fluorescence; percent of sucrose octasulfate shift, DMSO zero | calls only at 9.99 µM | actives 1.5% (n = 340,000) | AID 651658, 2012;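 active = melting point raised past a set limit in the mean and every replicate; three in four hits are not shown here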
Target sequence (Q9HCT0 whole entry, looked up): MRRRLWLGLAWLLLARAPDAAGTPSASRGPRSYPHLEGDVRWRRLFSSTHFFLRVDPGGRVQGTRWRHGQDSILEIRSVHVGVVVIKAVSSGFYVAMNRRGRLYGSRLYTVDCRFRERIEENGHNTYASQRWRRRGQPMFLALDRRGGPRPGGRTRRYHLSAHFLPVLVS
rRNA inh HTS OD600 = second read-out of rRNA inh HTS, no call of its own (marks repeat the call); OD600 change, %; measured here: OD600 growth;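 optical density of the mix in the first replicate; 0 = DMSO median and -100 = no signal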
rRNA inh HTS RFP = further read-out of rRNA inh HTS, marked with its call; RFP signal change, %; measured here: RFP humanized mutant strains;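 first replicate; 0 = DMSO median and -100 = no signal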
* hit, by the source's call; i = inactive; · = not tested or not shown. The list is partial, so the mix of outcomes need not match the whole.

SMILES	rRNA inh HTS	rRNA inh HTS OD600	rRNA inh HTS RFP	MLL AF4-AF9 inh	FGF22 binding
C[C@H]1CN([C@@H](C)CO)C(=O)c2c(c3ccccc3n2C)-c2ccccc2CO[C@H]1CN(C)S(C)(=O)=O	-4.1	1.8	-3.1	-2.7	i
C[C@H](CO)N1C[C@H](C)[C@@H](CN(C)S(C)(=O)=O)Oc2ccc(NC(=O)CCCCCC(=O)Nc3ccccc3N)cc2CC1=O	7.2	9.2	-2.8	11.9	i
COc1cccc(S(=O)(=O)N[C@H]2C=C[C@H](CC(=O)NC3CCC3)O[C@@H]2CO)c1	2.8	5.7	-1.3	-1.3	i
CO[C@H]1CN(C)C(=O)c2ccc(NC(=O)c3cnccn3)cc2OC[C@H](C)N(CC2CC2)C[C@H]1C	2.0	-0.3	0.4	-1.2	i
Cc1noc(C)c1NC(=O)N(C)C[C@H]1OCCCC[C@@H](C)Oc2ccc(NS(=O)(=O)c3ccc(F)cc3)cc2C(=O)N([C@@H](C)CO)C[C@@H]1C	1.6	-5.2	1.4	-5.8	i
CC(=O)c1ccc(S(=O)(=O)Nc2ccc(C(=O)NCC(c3ccco3)N3CCCC3)cc2)cc1 (centres undefined)	-3.9	8.1	10.8	-0.1	i
Cc1noc(C)c1S(=O)(=O)Nc1ccc2c(c1)C(=O)N([C@H](C)CO)C[C@H](C)[C@H](CN(C)S(=O)(=O)c1cn(C)cn1)O2	3.0	4.7	-1.8	0.9	i
C[C@@H]1CN([C@@H](C)CO)S(=O)(=O)c2ccc(-c3cncnc3)cc2O[C@@H]1CN(C)Cc1cccnc1	3.8	0.2	0.8	5.5	i
CC(C)[C@@H]1CC[C@@H](C)C[C@H]1OC[B-](F)(F)F	-12.7	-1.7	-2.1	-0.3	i
C[C@@H]1CN([C@@H](C)CO)S(=O)(=O)c2ccc(-c3ccncc3)cc2O[C@H]1CN(C)Cc1ccccn1	-5.4	-13.9	-0.8	-1.3	i
COc1ccc2c3c([nH]c2c1)[C@H](CO)NCC31CCN(C(=O)Cc2ccccc2)CC1	2.2	3.8	-0.6	-0.6	i
CCOC(=O)N1CCN(C2=C(NS(=O)(=O)c3ccc(Br)cc3)C(=O)c3ccccc3C2=O)CC1	-8.0	-9.8	6.5	32.5*	i
C[C@@H]1CCCCO[C@H](CN(C)CC2CCCCC2)[C@H](C)CN([C@H](C)CO)C(=O)c2cc(NS(C)(=O)=O)ccc2O1	4.6	5.4	-0.2	-2.0	i
CC(C)NC(=O)N(C)C[C@H]1Oc2cc(-c3ccncc3)ccc2S(=O)(=O)N([C@@H](C)CO)C[C@H]1C	-0.7	4.0	-1.3	-2.9	i
CCc1csc(N2[C@@H](C#N)[C@@H](c3ccccc3-c3cccc(F)c3)[C@@H]2CO)n1	-3.7	-14.2	-4.6	2.5	i
CCCCCCn1cc(CN2CC(N3CCCC3)CS2(=O)=O)nn1 (centres undefined)	4.0	9.2	-3.7	0.2	i
COc1ccc(NC(=O)Nc2ccc3c(c2)C(=O)N([C@@H](C)CO)C[C@H](C)[C@@H](CN(C)C(=O)Nc2ccc(OC)cc2)O3)cc1	4.5	5.3	0.5	1.4	i
CCNC(=O)O[C@@H]1C=C[C@@H](C#Cc2ccc(C(C)(C)C)cc2)O[C@@H]1COC(C)=O	14.8	-8.0	-1.4	-1.0	·
COCCNC(=O)C[C@@H]1CC[C@@H]2[C@H](COC[C@@H](O)CN2Cc2ccc(Cl)c(Cl)c2)O1	-4.1	-6.0	-4.4	-0.7	i
Cc1ccccc1NC(=O)Nc1nc(CN(C)C)cs1	9.3	11.4	3.2	0.0	i
C[C@@H]1CN([C@H](C)CO)C(=O)c2cc(NS(=O)(=O)c3cn(C)cn3)ccc2O[C@@H]1CN(C)Cc1ccc(C(F)(F)F)cc1	-3.9	1.9	1.3	1.0	i
Cc1ccc(S(=O)(=O)Nc2ccc3c(c2)C(=O)N([C@@H](C)CO)C[C@@H](C)[C@H](CN(C)C(=O)Nc2cccc4ccccc24)O3)cc1	-1.7	-2.3	0.2	5.1	i
CCCNC(=O)[C@@H]1[C@@H](CO)[C@@H]2Cn3c(ccc(-c4ccncc4)c3=O)[C@H]1N2Cc1ccccc1F	-3.3	-5.0	-0.4	-0.5	i
CC(=O)N1CCCCN2[C@H](CO)[C@@H](c3ccc(-c4cccc(C(=O)N(C)C)c4)cc3)[C@@H]2C1	2.0	4.5	-1.4	-5.1	i
C[C@@H]1CN([C@H](C)CO)C(=O)Cc2cc(NS(=O)(=O)c3ccc(Cl)cc3)ccc2O[C@H]1CN(C)Cc1ccncc1	-1.2	2.6	2.1	-1.9	i

Later entries.
SMILES	rRNA inh HTS	rRNA inh HTS OD600	rRNA inh HTS RFP	MLL AF4-AF9 inh	FGF22 binding
CCCc1c(C(=O)N/N=C(\C)c2cc(C)sc2C)nnn1-c1nonc1N	-27.4	-31.9	-5.7	-7.0	i
O=[N+]([O-])c1cccc(COc2ccc(CN3CCOCC3)cc2)c1	-17.4*	4.0*	-0.2*	1.6	i
COc1ccc(S(=O)(=O)N2CCCCC2c2cc(C(=O)Nc3ccc4c(c3)OCO4)no2)cc1 (centres undefined)	-3.5	-5.1	4.2	1.8	i
O=C(C[C@H]1C=C[C@H](NC(=O)c2ccc(F)cc2)[C@@H](CO)O1)NCCc1ccccc1	-3.2	-6.6	-1.5	-1.5	i
COCC#Cc1cnc2c(c1)C(=O)N([C@@H](C)CO)C[C@H](C)[C@@H](CN(C)C(=O)c1ccc3c(c1)OCO3)O2	2.8	2.6	-1.2	-2.0	i
COc1ccc2c3c(n(C)c2c1)[C@H](CO)N(C(=O)c1cccnc1)CC31CN(C(=O)c2cccnc2)C1	-0.3	4.3	-2.1	-3.0	i
CCOC(=O)[C@]12CCCC=C1N(CCc1ccc(OC)c(OC)c1)C(=O)[C@H](CC(=O)NCc1ccc(C)o1)C2	-6.2	-5.7	0.9	0.0	i
CN(C)S(=O)(=O)N1CCC(Oc2ccc(C(=O)N3CCCCCC3)cc2)CC1	-2.5	-15.6	-1.4	-3.8	i
CCS(=O)(=O)N1CC2(CN(C(=O)Nc3c(C)noc3C)[C@H](CO)c3c2c2ccc(OC)cc2n3C)C1	2.1	10.9	2.0	-2.1	i
O=C(Cc1ccccc1)N[C@@H]1CC[C@H](CC(=O)N2CCCCC2)O[C@H]1CO	0.8	3.9	-0.6	-0.2	i
CN(C)C(=O)C[C@H]1C[C@H]2c3cc(NC(=O)c4ccc5c(c4)OCO5)ccc3O[C@H]2[C@@H](CO)O1	-1.7	-4.5	-3.5	-0.3	i
C[C@H]1CN([C@@H](C)CO)C(=O)c2cc(NC(=O)Nc3ccc(F)cc3)ccc2O[C@H]1CN(C)C(=O)Nc1ccccc1	4.8	4.5	-1.6	-1.5	i
O=C(C[C@H]1CC[C@H]2[C@@H](COC[C@@H](O)CN2C(=O)Nc2cccc(F)c2)O1)NCCCN1CCOCC1	-12.9	-24.6	-0.5	-7.2	i
CO[C@H]1CN(C)C(=O)c2cc(NC(C)=O)ccc2OC[C@H](C)N(Cc2ccncc2)C[C@@H]1C	2.1	1.5	-0.7	-1.9	i
Cn1cnc(S(=O)(=O)N2C[C@H](O)COC[C@H]3O[C@H](CC(=O)NC4Cc5ccccc5C4)CC[C@@H]32)c1	6.9	21.5	-2.8	-0.6	i
CC(=O)N1Cc2cc(C(=O)NCc3cc(F)cc(F)c3)nc(-c3cccc(C4=CCCC4)c3)c2[C@@H]1CCO	-3.2	-6.0	3.6	6.2	i
O=C(N[C@H]1C=C[C@H](CC(=O)N2CCN(c3ccccc3)CC2)O[C@H]1CO)c1ccccc1	0.2	-8.0	-0.4	0.4	i
COc1ccc2c3c(n(C)c2c1)[C@@H](CO)N(CC1CC1)CC31CN(C(=O)c2ccccc2)C1	-3.4	-1.0	1.3	-0.9	i
C[C@@H]1CN([C@H](C)CO)C(=O)c2cc(-c3ccccc3)cnc2O[C@H]1CN(C)Cc1ccc(C(=O)O)cc1	-2.0	7.8	-1.6	-1.9	i
CC(CNC(=O)CCCn1c(=O)c2cccn2c2cccnc21)c1ccccc1 (centres undefined)	18.3	5.2	10.6	5.8	i
C[C@@H]1CN([C@H](C)CO)S(=O)(=O)c2ccc(-c3cccc(F)c3)cc2O[C@@H]1CN(C)S(C)(=O)=O	-9.0	-20.4	-0.5	-0.2	i
C[C@@H]1CCCCO[C@H](CN(C)C(=O)c2ccccc2)[C@H](C)CN([C@@H](C)CO)C(=O)c2cc(NC(=O)C3CCCCC3)ccc2O1	-5.4	-7.7	0.2	2.0	i
Cc1cc(C(=O)Nc2ccc3c(c2)C(=O)N(C)[C@@H]2CC[C@H](CC(=O)NC4CCCC4)O[C@H]2CO3)no1	-2.2	-10.9	0.1	-1.6	i
CCC(=O)N(C)C[C@@H]1Oc2ncc(-c3ccccc3C)cc2C(=O)N([C@H](C)CO)C[C@@H]1C	0.9	3.4	-0.9	-3.7	i
C[C@@H]1CN([C@H](C)CO)C(=O)Cc2cc(NC(=O)Nc3ccc4c(c3)OCO4)ccc2O[C@@H]1CN(C)S(=O)(=O)c1ccccc1	0.0	-1.0	2.9	3.0	i

Ordered by heavy-atom count (descending): part of the list above.
SMILES	rRNA inh HTS	rRNA inh HTS OD600	rRNA inh HTS RFP	MLL AF4-AF9 inh	FGF22 binding
C[C@@H]1CN([C@H](C)CO)C(=O)c2cc(-c3ccccc3)cnc2O[C@H]1CN(C)Cc1ccc(C(=O)O)cc1	-2.0	7.8	-1.6	-1.9	i
CCS(=O)(=O)N1CC2(CN(C(=O)Nc3c(C)noc3C)[C@H](CO)c3c2c2ccc(OC)cc2n3C)C1	2.1	10.9	2.0	-2.1	i
CO[C@H]1CN(C)C(=O)c2cc(NC(C)=O)ccc2OC[C@H](C)N(Cc2ccncc2)C[C@@H]1C	2.1	1.5	-0.7	-1.9	i

Further entries:
SMILES	rRNA inh HTS	rRNA inh HTS OD600	rRNA inh HTS RFP	MLL AF4-AF9 inh	FGF22 binding
CCCN1C[C@@H](C)[C@@H](OC)CN(C)C(=O)c2ccc(NS(=O)(=O)c3cn(C)cn3)cc2OC[C@H]1C	1.6	-2.7	-0.5	-1.9	i
C[C@@H]1CN([C@@H](C)CO)C(=O)c2cccc(NS(=O)(=O)c3ccc(Cl)cc3)c2O[C@H]1CN(C)Cc1ccc(-c2ccccc2)cc1	0.3	3.5	-0.1	1.2	i
CNC[C@@H]1Oc2ccc(NC(=O)Nc3ccc(F)cc3)cc2CC(=O)N([C@H](C)CO)C[C@H]1C	-0.3	-0.4	0.1	-1.6	i
Cc1ccc(S(=O)(=O)Nc2ccc3c(c2)C(=O)N([C@H](C)CO)C[C@@H](C)[C@H](CN(C)Cc2ccc(C(F)(F)F)cc2)OCCCC[C@@H](C)O3)cc1	0.4	-9.9	10.7	2.4	i
CCCNC(=O)Nc1ccc2c(c1)OC[C@@H](C)NC[C@@H](C)[C@@H](OC)CN(C)C2=O	2.3	0.3	-1.2	-2.6	i
COCCNC(=O)C1(C)CCCN(C(=O)c2ccc(OC)cc2OC)C1 (centres undefined)	15.5	12.7	2.5	7.6	i
CCC(=O)N(C)C[C@H]1Oc2cc(C#CCC(C)C)ccc2S(=O)(=O)N([C@@H](C)CO)C[C@H]1C	-6.9	-20.8	0.2	-1.8	i
Cc1ccc(S(=O)(=O)N2C[C@H](O)COC[C@H]3O[C@@H](CC(=O)NCCCN(C)C)CC[C@@H]32)cc1	0.7	1.4	-2.4	-1.9	i
COc1ccc(NC(=O)N(C)C[C@H]2Oc3ccc(NC(=O)NC(C)C)cc3CC(=O)N([C@H](C)CO)C[C@@H]2C)cc1	4.7	0.8	-1.6	-17.2	i
O=C(C[C@H]1C[C@H]2c3cc(NS(=O)(=O)c4ccc(F)cc4)ccc3O[C@H]2[C@@H](CO)O1)NCc1cc(F)ccc1F	-1.4	-20.2	2.1	-1.3	i
C[C@H](CO)N1C[C@H](C)[C@@H](CN(C)Cc2ccc(C(=O)O)cc2)Oc2ccc(NS(=O)(=O)c3cccs3)cc2C1=O	1.4	3.6	-2.2	-2.6	i
C[C@@H]1CN([C@H](C)CO)C(=O)c2cc(NC(=O)c3ccncc3)ccc2O[C@@H]1CN(C)Cc1ccncc1	3.3	4.1	-1.9	-4.5	i
COc1ccc(NC(=O)N[C@H]2CC[C@H](CCn3cc(-c4ccccn4)nn3)O[C@@H]2CO)cc1	0.7	4.0	0.5	-0.4	i
CC(C)CC(CO)NS(=O)(=O)c1cccc(Cl)c1F (centres undefined)	-4.7	-1.4	-0.1	-0.6	i
CC(C)c1cn(CC[C@H]2CC[C@H](NC(=O)C3CCCCC3)[C@@H](CO)O2)nn1	1.1	5.8	-2.9	-2.3	i
Cc1ccc(S(=O)(=O)Nc2ccc3c(c2)C(=O)N([C@@H](C)CO)C[C@H](C)[C@@H](CN(C)S(=O)(=O)c2cn(C)cn2)O3)cc1	2.1	1.7	-0.1	1.5	i

Printed as active in MLL AF4-AF9 inh, of those listed so far:
| SMILES | rRNA inh HTS | rRNA inh HTS OD600 | rRNA inh HTS RFP | MLL AF4-AF9 inh |
| --- | --- | --- | --- | --- |
| CCOC(=O)N1CCN(C2=C(NS(=O)(=O)c3ccc(Br)cc3)C(=O)c3ccccc3C2=O)CC1 | -8.0 | -9.8 | 6.5 | 32.5* |
